High-throughput results (PubChem)
Anaer choline gr: blocks anaerobic gram-negative growth on choline; AID 1963822; Gram-negative bacterium anaerobic choline minimal medium, absorbance growth; stronger effect = lower value; many inactives read as strong as hits in the columns shown; calls only; 55,000 tested, 0.2% active;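 active = growth z-score on choline under -2 at 7 or 20 h with little or no fall on glycerol, limits in tiers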;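 note: stock transfer was 300 nL into about 50 µL; the organism is E. coli; final concentration not given here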
Anaer choline gr early: also measured in Anaer choline gr; calls as there; z-score; measured here: choline growth z-score, timepoint 1;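 score of optical density at 7 h as mean of two plates; lower means less growth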
Active calls of the source: *; i = inactive; & = joins results of further samples.

SMILES | Anaer choline gr | Anaer choline gr early
Cc1ccc(N(Cc2cc3ccc(C)cc3[nH]c2=O)S(C)(=O)=O)cc1 | i | -0.32
O=C(Nc1ccc2c(c1)OCO2)c1nnc(C2CCCN2C(=O)C2CCC2)s1 (stereo not given) | i | -2.4
Cc1ccc(CN=C2Nc3ccccc3NC23CCCCCC3)cc1 | i | -1.3
COc1cc(=O)n(-c2ccc(F)cc2)nc1C(=O)Nc1ccccc1 | i | -0.52
O=C(Nc1cccc(Cl)c1)N1Cc2ccccc2C(N2CCOCC2)c2ccccc21 (stereo not given) | i | -1.3
CCOc1ccc(NC(=O)N2CCN(Cc3nc(-c4ccccc4)oc3C)CC2)cc1 | i | 0.88
CCCS(=O)(=O)N1CCCc2cc(NC(=O)c3c(-c4ccccc4Cl)noc3C)ccc21 | i | -0.26
COc1ccc(-n2nc(C(=O)N3CCCC3)nc2-c2ccccc2)cc1 | i | -1.1
CCSc1nnc(-c2nn(C)c3c2CN(S(=O)(=O)c2c(C)nn(C)c2C)CC3)n1CC | i | -1
COc1cccc(C2Nc3ccccc3-n3c(-c4ccccc4)c4c(=O)n(C)c(=O)n(C)c4c32)c1O (stereo not given) | i | 0.67
CCOC(=O)c1oc2ccc(S(=O)(=O)N(C)CCc3noc(C4CCCCC4)n3)cc2c1C | i | 1.4
COc1ccc(CNC(=O)c2cnc(N(C)C)nc2C)cc1 | i | 0.06
Cc1cc(Sc2ccc(NC(=O)C3CC3)cc2)n2ncnc2n1 | i | -0.86
COc1ccc(OCc2nc(-c3ccc(S(=O)(=O)N4CCOCC4)cc3)no2)cc1 | i | 0.97
CCOc1ccccc1NCc1nc2nc(C(C)C)cc(=O)n2[nH]1 | i | 0.06

Structures shown so far that contain a halogen:
SMILES | Anaer choline gr | Anaer choline gr early
COc1cc(=O)n(-c2ccc(F)cc2)nc1C(=O)Nc1ccccc1 | i | -0.52
O=C(Nc1cccc(Cl)c1)N1Cc2ccccc2C(N2CCOCC2)c2ccccc21 (stereo not given) | i | -1.3
CCCS(=O)(=O)N1CCCc2cc(NC(=O)c3c(-c4ccccc4Cl)noc3C)ccc21 | i | -0.26

Later entries.
SMILES | Anaer choline gr | Anaer choline gr early
CCCc1c(OCCCOc2ccc(OCC(=O)O)cc2)ccc(C(C)=O)c1O | i | 0.76
Cc1cc(-c2ccc(Br)cc2)n2nc(C)cc2n1 | i | 0.59
CC1=C(C(=O)O)N2C(=O)[C@@H](NC(=O)C(N)C3=CCC=CC3)[C@H]2SC1 (stereo not given in full) | i | 0.37
COc1ccc(Cn2c(C)c(C3=CCN(S(=O)(=O)c4cn(C)cn4)CC3)c3ccccc32)cc1 | i | 1.9
CCCc1cc(C2CCCN2Cc2ccc(C)cc2C)no1 (stereo not given) | i | 0.38
Cc1noc(C)c1S(=O)(=O)N1CCC2(C1)C(=O)N(C)c1ccccc12 (stereo not given) | i | -0.15
Cc1cc(C)nc(NC(c2ccc3c(c2)OCO3)c2cc(C)sc2NC(=O)c2ccccc2)n1 (stereo not given) | i | -0.47
Cc1cc(NC(=O)COc2ccc(Cl)cc2)n(-c2nc3c(c(=O)[nH]2)CCC3)n1 | i | 0.35
COc1ccc(-c2cc(Oc3cccc(C(=O)NCCC(C)C)c3)ncn2)cc1 | i | 1.5
O=C(Cc1ccsc1)NCc1nnc2n1CCCC2 | i | -0.43
Cc1ccc(-c2cc(N3CCC(C(=O)NC4CCCC4)CC3)ncn2)cc1 | i | -0.62
CC1(C(=O)NC2CCCC2)Cn2c(cc3ccccc32)C(=O)N1CCCN1CCOCC1 (stereo not given) | i | -1.4
Cc1cc2c(cc1C)NC(=O)CC(c1ccc(Cl)cc1)=N2 | i | 0.31
O=S(=O)(c1ccc(Br)cc1)N1CCCC1c1ccc(F)cc1 (stereo not given) | i | 1.5
Cc1ccc(S(=O)(=O)NCc2nnc(C(=O)Nc3ccc(F)cc3)s2)cc1 | i | 2.3
C=CCn1c(=O)c2sc(N(CC)CC)nc2n(CC(=O)Nc2ccc(Br)cc2)c1=O | i | 0.22
O=C(Nc1ccccc1F)C1CC(=O)N(CCc2c[nH]c3ccc(F)cc23)C1 (stereo not given) | i | 0.17
Cc1noc2c1C(c1ccc(Br)cc1)C1=C(CC(c3ccc(O)cc3)CC1=O)N2 (stereo not given) | i | -0.03
CCOc1ccc(C2CC(c3c(O)n(C)c(=S)n(C)c3=O)=NN2C(C)=O)cc1 (stereo not given) | i | -1.1
CC1CCN(CCCn2c(SCC(=O)Nc3ccccc3Cl)nc3ccccc3c2=O)CC1 | i | -0.37
Cc1nc(-c2cc(S(=O)(=O)N3CCC(C(=O)N4CCN(c5ccccc5)CC4)CC3)c(C)s2)no1 | i | 0.25
O=C(CSc1nccn2nc(-c3ccc(F)cc3)cc12)Nc1ccc(F)cc1F | i | -0.36
Cc1ccc(-c2nc(CN3CCC(C(=O)Nc4ccc(C(C)C)cc4)CC3)no2)cc1 | i | 0.7
Cc1cc2oc(=O)c(C)c(C)c2c2c1C(=O)CC(c1ccc3c(c1)OCO3)O2 (stereo not given) | i | 0.88
CCOC(=O)C12CC1/C(=N/O)c1ccccc1O2 (stereo not given) | i | -0.26
Cc1cc(C)c(S(=O)(=O)N2CCN(C)c3ccccc32)c(C)c1 | i | -0.66
COc1ccc(-c2nn(CCCC(=O)N3CCN(c4cccc(C)c4C)CC3)c(=O)c3noc(C)c23)cc1 | i | -1
Cc1ccc(-c2cc3ncc4c(n3n2)-c2cc(Cl)ccc2OC4)cc1 | i | 0.09
CCC(C)(C)NC(=O)c1cccc(-c2ccc(S(=O)(=O)NCc3ccccc3)cc2)c1 | i | 0.14
Cn1nc(-c2ccccc2F)c2cc(C(=O)OCCOc3ccccc3)sc21 | i | 0.72
CC(C)Cn1c(=O)c2sccc2n2c(CCC(=O)NC(C)C)nnc12 | i | 0.02
CCn1nc(-c2csc(S(=O)(=O)N3CCCCC3C)c2)ccc1=O (stereo not given) | i | -0.1
Nc1nc(N)nc(-c2cc(Cl)ccc2Cl)n1 | i | 0.74&0&0.14&0.55
Cc1ccc(-n2nnnc2CNC(=O)Nc2ccccc2)cc1 | i | 0.61
CCCCN1CCn2c(nc3cc(NC(=O)NC4CCCCC4)ccc32)C1 | i | -0.73
CCCOc1ccc(-c2nn3c(=O)c(NC(=O)c4ccccc4Cl)cnc3o2)cc1 | i | 0.2
COCCNC(=O)C1CCCN1C(=O)c1ccc(NC(=O)c2ccc(Br)cc2)cc1 (stereo not given) | i | -1.8
CCOC(=O)CSc1nc2sc3c(c2c(=O)n1-c1ccccc1)CC(C(C)C)OC3 (stereo not given) | i | 0.41
Cc1ccc(NC(=O)c2nnc(CCC(=O)Nc3cccc(Cl)c3)s2)cc1 | i | -0.36
CCOC(=O)C1CCN(C(=O)C2CCN(c3cc(C)nc4cc(-c5ccc(F)cc5)nn34)CC2)CC1 | i | 0.27
CC1CC(=O)Nc2cc(S(=O)(=O)CCC(=O)N3CCc4ccccc4C3)ccc2S1 (stereo not given) | i | 0.61
CCc1ccc2c(c1)[C@H]1OCC[C@H]1C(c1ccc(Br)cc1)N2 (stereo not given in full) | i | -0.06
CCOC(=O)c1sc(NC(=O)c2sc(COc3cccc(C)c3)nc2C)nc1C | i | 0.38
Cc1c(N2CCN(C(=O)CCC(=O)N3CCOCC3)CC2)c(=O)n(C)c(=O)n1C | i | -0.3
Cc1ccccc1NC(=O)Cn1c(=O)n(Cc2ccc3c(c2)OCO3)c(=O)c2oc3ccccc3c21 | i | 0.63

6 records picked at random from the list so far, as already listed:
SMILES | Anaer choline gr | Anaer choline gr early
CCOC(=O)CSc1nc2sc3c(c2c(=O)n1-c1ccccc1)CC(C(C)C)OC3 (stereo not given) | i | 0.41
O=C(Nc1ccccc1F)C1CC(=O)N(CCc2c[nH]c3ccc(F)cc23)C1 (stereo not given) | i | 0.17
CCOc1ccc(NC(=O)N2CCN(Cc3nc(-c4ccccc4)oc3C)CC2)cc1 | i | 0.88
Cc1cc(C)c(S(=O)(=O)N2CCN(C)c3ccccc32)c(C)c1 | i | -0.66
Cc1c(N2CCN(C(=O)CCC(=O)N3CCOCC3)CC2)c(=O)n(C)c(=O)n1C | i | -0.3
CCc1ccc2c(c1)[C@H]1OCC[C@H]1C(c1ccc(Br)cc1)N2 (stereo not given in full) | i | -0.06

(further entries)
SMILES | Anaer choline gr | Anaer choline gr early
COc1ccc(C(CNC(=O)c2ccccc2OC)c2c[nH]c3ccccc23)cc1 (stereo not given) | i | 1.5
Cc1cc(C)cc(N2C(=O)CN(S(C)(=O)=O)CC2(C)C(=O)NC2CCCC2)c1 (stereo not given) | i | -0.3
CNC(=O)c1ccc(-c2nc3cc(NS(=O)(=O)c4ccc(C(C)C)cc4)ccc3n2C)cc1 | i | 0.32
O=C(NCCc1cnc[nH]1)c1ccc(NC(=O)c2nsc3ccccc23)cc1 | i | -1.2
O=C(NCCc1csc2nc(-c3cccc(F)c3)nn12)c1ccccc1Br | i | 0.88
COc1cc(CN2CCCC2c2cc(C(C)C)no2)ccc1O (stereo not given) | i | -0.33
CC(C)NC(=O)c1cnn(-c2ccc(Br)cc2)c1 | i | 0.38
C=CCSc1n[nH]c2nc3ccccc3n12 | i | -0.18
Cc1noc(Cn2c(=O)c3ccccc3n(CC(=O)Nc3ccc(F)cc3F)c2=O)n1 | i | 1.7
Cn1c(=O)c2c(-c3cccc(Cl)c3)c(NCCc3ccccc3)oc2n(C)c1=O | i | -0.81
O=C(NCCNCCO)c1c(O)c2cccc3c2n(c1=O)CCC3 | i | -1.9
Cc1nc2cccnc2n1-c1cc(C(=O)NC2CCS(=O)(=O)C2)ccc1Cl (stereo not given) | i | 1.3
Cc1nn(C)c(C)c1-c1cc(C(=O)O)[nH]n1 | i | -0.86
CCOC1CCN(C(=O)NC(C)(C)C)CC1 | i | 0.4
O=C(NCCc1nc(-c2ccccc2)no1)c1cc(-c2ccc3c(c2)OCCO3)on1 | i | 0.17
Cn1cc(-c2cc3n(n2)CCC(=O)N3CC(=O)N2CCCC2)c2ccccc21 | i | 0.72
O=C(c1cccc(CN2C(=O)C3CCCN3C(=O)c3ccccc32)c1)N1CCN(c2ccccn2)CC1 (stereo not given) | i | 0.55
Cc1cccc(-c2csc(-c3nc(-c4ccc5c(c4)OCO5)no3)c2-n2cccc2)c1 | i | 0.69
CNc1nc(N2CCCCCC2)nc(-n2cnc(SC)n2)n1 | i | 0.63
Cc1cn(S(=O)(=O)c2ccc(C(C)(C)C)cc2)cn1 | i | -0.33
CCOc1ccc(NC(=O)C2CCCN(S(=O)(=O)Cc3ccc(F)cc3)C2)cc1 (stereo not given) | i | 0.89
CN1CCN(C(CNC(=O)Cc2ccc(Cl)cc2)c2ccc(N(C)C)cc2)CC1 (stereo not given) | i | -1.1
CCCCC[C@H](O)/C=C/[C@H]1C2COC(C2)[C@@H]1C/C=C/CCCC(=O)O (stereo not given in full) | i | 0.31
Cc1oc(-c2cccc(Cl)c2)nc1CNS(=O)(=O)c1ccc(C(C)C)cc1 | i | 0.65
CCc1nnc(-c2cn(CC(=O)NCc3cc(OC)ccc3OC)c3ccccc23)o1 | i | 0.84
Cc1noc2ncnc(N3CCCC(C(=O)NCc4cccnc4)C3)c12 (stereo not given) | i | 0.57
COc1ccc(C2CC(=O)Nc3nc(N)[nH]c(=O)c32)c(OC)c1 (stereo not given) | i | -2.5
CCOc1ccc(-c2noc(N3CCC(C(=O)N4CCCC4)CC3)n2)cc1OC | i | -0.41
Cc1cc(C)c(S(=O)(=O)Nc2ccc(N3CCCC3)cc2C(=O)O)c(C)c1 | i | -0.79
CN(C)S(=O)(=O)N1CCCC(c2cc(-c3ccccc3)n[nH]2)C1 (stereo not given) | i | 0.11

4 structures already listed, sorted by count of non-hydrogen atoms, rising.
SMILES | Anaer choline gr | Anaer choline gr early
Cc1cn(S(=O)(=O)c2ccc(C(C)(C)C)cc2)cn1 | i | -0.33
COc1ccc(C2CC(=O)Nc3nc(N)[nH]c(=O)c32)c(OC)c1 (stereo not given) | i | -2.5
CCOc1ccc(NC(=O)C2CCCN(S(=O)(=O)Cc3ccc(F)cc3)C2)cc1 (stereo not given) | i | 0.89
CCc1nnc(-c2cn(CC(=O)NCc3cc(OC)ccc3OC)c3ccccc23)o1 | i | 0.84

Whole records, quoted from the list:
Profile of CCOc1ccc(NC(=O)C2CCCN(S(=O)(=O)Cc3ccc(F)cc3)C2)cc1 (stereo not given) = Anaer choline gr: i; Anaer choline gr early: 0.89
Profile of Cc1cccc(-c2csc(-c3nc(-c4ccc5c(c4)OCO5)no3)c2-n2cccc2)c1 = Anaer choline gr: i; Anaer choline gr early: 0.69

The list goes on.
SMILES | Anaer choline gr | Anaer choline gr early
Cc1nc(C)n2cc[nH]c(=O)c12 | i | -0.83
CCc1ccc(C2N3CC4(CC)CN2CC(CC)(C3)C4O)cc1 (stereo not given) | i | 0.4
CC(C)(C)c1ccc(C(=O)NCC(=O)OCc2cc(=O)n3ccsc3n2)cc1 | i | 0.12
Cc1ccc(-c2c(N3CCOCC3)c(=O)c2=O)cc1C | i | 0.65
CCc1ccc(NC(=O)c2noc3ncnc(N4CCOCC4)c23)cc1 | i | -0.29
COc1cccc(-c2cc(=O)[nH]c(SCc3nc(-c4ccccc4)oc3C)n2)c1 | i | -0.2
CCCNc1cc(C)nc2nc(-c3ccc(C(C)(C)C)cc3)nn12 | i | 1.5
CCc1ccc(CNc2nc3nc(CNC(C)C)cc(=O)n3[nH]2)cc1 | i | -0.88
COc1ccc(-n2nc(C(=O)Nc3nc4ccccc4s3)c(=O)n(C)c2=O)cc1 | i | 0.34
Cc1ccc(COCc2ccc3c(c2)CN(C(=O)Nc2ccc4c(c2)OCCO4)CCO3)cc1 | i | -0.47
COc1ccccc1NC(=O)CSc1nc(N2CCc3ccccc3C2)nc2ccccc12 | i | 2.8
Cc1nn(-c2nc3ccccc3[nH]2)c2c1C(c1cnn(C)c1C)CC(=O)N2 (stereo not given) | i | -0.82
CCC(=O)N1CCc2cc(-c3ccc(C(=O)NCc4ccccn4)cc3)ccc21 | i | -1
COc1ccc(C2CC(=O)C3=C(C2)Nc2onc(C)c2C3C(C)C)cc1OC (stereo not given) | i | 0.34
CCn1c(CN(c2ccc(F)cc2)S(C)(=O)=O)nnc1SCC(=O)Nc1cc(F)ccc1F | i | -0.1
Cc1cccc(NC(=O)C2Oc3ccccc3NC2=O)c1C (stereo not given) | i | 1.3

A portion of the library. The share of hits here may be higher or lower than overall.
